# A1 inh: inhibitors of the anti-apoptotic protein A1, read as caspase activation. MEF A1-2A-BIM cells, Caspase-Glo 3/7 luminescence, 3 h; percent of clofoctol response, vehicle zero. caspase activation, % (test concentration not listed). 0.066% of 330,000 active;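 active means over half of replicate activation scores above 10%, or exactly half above 10 with the replicate mean above 10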;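 further: wells of about 30 µL received 50 nL stock; many hits fall short of the cut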
# B2AR ag: agonists of human beta-2 adrenergic receptor inducing internalization; P07550; Am2.2-beta2AR cells, FAP receptor internalization, flow cytometry; reference of the scale not given here; response, % (test concentration not listed); 0.43% of 340,000 active; AID 504454;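 active means response above a set limit, near 3 SD of response in nonfluorescent compounds, cut at about 42% in these data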;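 further: stock transfer was 100 nL into about 11 µL; a reference agonist was the positive control; negative values mostly stem from fluorescent compounds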
# rRNA inh HTS: selective bacterial rRNA inhibition in E. coli; 1.6% of 350,000 active; E. coli WT GFP vs humanized-ribosome RFP mutants, fluorescence, 24 h; stronger effect = lower value; DMSO median 0, no signal -100; GFP signal change (wild-type ribosome), % (no concentration beside the values); AID 720706;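 active means significant combined selectivity score with lowered wild-type GFP, culture density cut under 30%, mutant RFP and density less affected; inactive means any of these conditions unmet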; further: one replicate is shown; some compounds called inactive have numbers as strong as hits
# Beta apoptosis: blocks beta cell apoptosis; INS-1E cytokine-induced death, ATP luminescence, 48 h; percent of positive-control rescue, neutral wells zero; protection from apoptosis, % (concentration not given with the values); 0.8% of 300,000 active; AID 435005;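 active means all replicates at 75% or more, or half of them and the mean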;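 further: 0% = cytokine-treated negative control wells and 100% = positive control rescue; higher means more ATP so stronger rescue from cytokine killing; wells of about 40 µL received 100 nL stock; the first replicate is given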
# Calb FLC: affects C. albicans growth with fluconazole. C. albicans CaCi-2 (fluconazole-resistant clinical isolate) + fluconazole, Alamar Blue growth, 48 h. growth inhibition, % (concentration not given with the values). 0.57% of 300,000 active. AID 1979;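 active means most replicates above 75%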;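 further: all wells also contain fluconazole at 8 µg/ml as a sub-toxic cotreatment; 0% = median of DMSO wells and 100% = median of geldanamycin control wells; wells of about 8 µL received 7.5 nL stock; the first replicate is given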
# T cruzi repl: blocks replication of Trypanosoma cruzi; T. cruzi beta-gal in NIH3T3, luminescence, 90 h; inhibition, % (no concentration beside the values); 1.4% of 300,000 active; AID 1885;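 active means mean inhibition across valid replicates above about 55%, limit read from the data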;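 further: signal also drops with host cell toxicity which is not excluded here; 0% = plate median of DMSO wells and 100% = zero luminescence signal; higher percent means less beta-gal luminescence so fewer parasites; stock transfer was 50 nL into about 50 µL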
# ALR inh: human ALR oxidase inhibition via reduced H2O2; purified ALR, DTT oxidation, H2O2 HRP-luminol luminescence; P55789; AID 485317; inhibition, % (concentration not given with the values); 3.8% of 290,000 active;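 active means mean and each replicate at 75% or more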;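 further: stock transfer was 7.5 nL into about 7.5 µL; 0% = neutral wells and 100% = wells with inactivated enzyme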
# LANA-H2A inh: blocks KSHV LANA binding to histone H2A/H2B; cell-free LANA-H2A/H2B peptide, fluorescence polarization; AID 2629; Q9QR71; 0.6% of 320,000 active; inhibition, % (test concentration not listed); in the data active means inhibition mostly above about 10%, no sharp cut-off; inactive means mostly below about 6.7%;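 further: stock transfer was 7.5 nL into about 10 µL; 0% = median of vehicle wells and 100% = median of positive control wells; one replicate is shown; the record names a cut of 25% in any replicate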
# Target sequence (Q9QR71 whole entry, looked up): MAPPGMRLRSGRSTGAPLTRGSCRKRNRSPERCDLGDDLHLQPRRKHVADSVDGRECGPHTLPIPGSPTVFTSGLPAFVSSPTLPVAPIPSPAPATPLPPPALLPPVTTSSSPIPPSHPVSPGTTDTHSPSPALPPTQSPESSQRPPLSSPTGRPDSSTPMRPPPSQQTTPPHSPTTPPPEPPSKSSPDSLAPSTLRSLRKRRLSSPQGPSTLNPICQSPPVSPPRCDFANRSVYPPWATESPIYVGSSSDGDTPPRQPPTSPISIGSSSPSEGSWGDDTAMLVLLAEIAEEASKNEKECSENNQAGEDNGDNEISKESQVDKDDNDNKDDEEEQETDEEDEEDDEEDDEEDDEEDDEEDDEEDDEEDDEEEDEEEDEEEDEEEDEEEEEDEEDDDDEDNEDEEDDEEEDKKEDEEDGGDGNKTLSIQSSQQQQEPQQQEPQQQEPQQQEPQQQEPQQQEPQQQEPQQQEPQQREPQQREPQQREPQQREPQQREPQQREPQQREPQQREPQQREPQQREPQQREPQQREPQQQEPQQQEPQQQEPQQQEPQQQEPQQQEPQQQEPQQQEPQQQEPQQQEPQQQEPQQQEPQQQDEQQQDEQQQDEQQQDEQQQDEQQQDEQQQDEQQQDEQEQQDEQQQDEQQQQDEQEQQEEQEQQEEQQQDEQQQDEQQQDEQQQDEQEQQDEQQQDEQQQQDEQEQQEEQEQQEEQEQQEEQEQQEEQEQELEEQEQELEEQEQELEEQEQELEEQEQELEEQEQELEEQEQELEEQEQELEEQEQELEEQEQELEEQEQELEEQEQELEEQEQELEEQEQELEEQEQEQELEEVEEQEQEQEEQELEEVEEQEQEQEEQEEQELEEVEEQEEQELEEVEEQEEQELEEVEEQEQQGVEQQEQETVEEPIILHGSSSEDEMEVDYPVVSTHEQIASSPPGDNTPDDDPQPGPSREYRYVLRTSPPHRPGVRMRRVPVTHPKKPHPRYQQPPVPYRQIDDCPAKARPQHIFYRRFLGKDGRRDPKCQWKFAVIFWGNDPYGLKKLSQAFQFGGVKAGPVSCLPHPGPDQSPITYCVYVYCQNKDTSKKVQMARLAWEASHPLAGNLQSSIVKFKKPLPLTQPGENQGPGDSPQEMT
# rRNA inh HTS OD600: recorded beside rRNA inh HTS, whose call it bears; OD600 change, %; measured here: OD600 growth;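 optical density of the mix in the first replicate; 0 = DMSO median and -100 = no signal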
# rRNA inh HTS RFP: further read-out of rRNA inh HTS, marked with its call; RFP signal change, %; measured here: RFP humanized mutant strains;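 first replicate; 0 = DMSO median and -100 = no signal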
# * marks the source's active call; other numbers are inactive results; / = not tested or not shown. The list is partial, so the mix of outcomes need not match the whole.
SMILES,A1 inh,B2AR ag,rRNA inh HTS,rRNA inh HTS OD600,rRNA inh HTS RFP,Beta apoptosis,Calb FLC,T cruzi repl,ALR inh,LANA-H2A inh
CC(C)(C)SCCNC(=O)CN(c1ccccc1)S(=O)(=O)c1ccccc1,-0.7,2,3,-1,-0.1,-4,5,-7,2,1.6
Cc1ccc(S(=O)(=O)N(C)C)cc1NC(=O)COC(=O)C1(c2ccccc2)CC1,0.2,-13,2,3,-0.8,1,4,8,/,4.0
Cc1cc(/C=C2/NC(=O)N(c3ccccc3)C2=O)c(C)n1-c1cccnc1,-0.4,-6,7,11,3.7,-2,29,-3,14,-1.6
CC(C)NC(=S)Nc1ccc2nc3n(c(=O)c2c1)CCCCC3,-0.2,-4,-1,4,-17,1,-13,-11,21,0.4
Cc1ccc(NC(=O)C2CC(=O)n3c(nc4ccccc43)N2)cc1 (centres undefined),0.0,-4,18,3,0.0,/,-15,-21,-5,-0.8
CC(C)CCNC(=O)CSc1nc2ccccc2s1,-0.4,-20,3,6,1.0,-6,-6,-17,/,3.4
COc1ccc(CCn2c(C(C)C)nc3oc4ccccc4c(=O)c3c2=O)cc1,0.7,-13,-1,-3,4.1,3,23,24,-6,3.6
CC1(C)CCC/C(=C\c2ccccc2)C1=O,0.1,-3,23,26,-0.8,-4,8,-16,-8,1.2
Cc1cccc(-n2c(C)nc3cc(C(=O)NCC4CCCO4)ccc32)c1 (centres undefined),0.5,1,3,2,-3.7,-3,-14,0,-4,3.0
CCc1c(C)nc2ncnn2c1Nc1ccccc1C,-8.2,5,-7,-7,-3.6,-1,5,-12,-4,2.7
COc1ccc(C(=O)NC(=S)NNC(=O)c2cnccn2)cc1OC,-0.2,8,/,/,/,82*,16,-5,98*,-0.9
COc1ccc(-c2ccc(=O)n(Cc3cc(=O)n4ccccc4n3)n2)cc1,0.5,-5,/,/,/,4,-4,-12,-7,-1.4
Cc1c(/C=N/n2cnnc2)c2ccccc2n1CCOc1ccccc1,-1.3,-11,/,/,/,2,1,35,0,3.6
COc1cc(C(=O)NCC(=O)N/N=C/c2ccccn2)cc(OC)c1OC,-0.7,15,0,1,-0.1,0,-1,7,-37,4.8
Cc1ccc(-c2noc(COc3ccccc3C)n2)cc1,-2.4,-4,/,/,/,-4,-16,-23,-6,1.1
Cc1ccc(/C=N/NC(=O)c2n[nH]c3c2CCCC3)cc1,0.2,28,12,2,-1.1,64,-5,-10,-7,2.0
CCOc1ccccc1NS(=O)(=O)c1cccs1,-0.8,-7,/,/,/,-4,3,6,3,3.0
Cc1ccccc1NS(=O)(=O)CCCCC(Cl)(Cl)Cl,-0.5,-5,-11,-18,-3.3,/,4,21,-10,-3.5
CC(C)OC(=O)/C(=C\c1cccc2ccccc12)NC(=O)c1ccccc1,-0.7,3,-19,-36,-1.9,-3,8,25,-3,0.1
Cc1ccc2nc(SCC(=O)NCc3ccccc3)nc(=O)n2c1,0.7,-1,10,4,-1.1,2,7,-16,/,/
CC1(C)CC(=O)c2ccc(O)cc2O1,-0.2,7,-6,-1,5.6,-7,-7,-12,0,4.1
Cc1ccc(S(=O)(=O)N2CCCCC2)cc1NC(=O)Cn1ccsc1=N,0.4,-7,14,4,1.2,-8,28,6,13,3.8
CCOC(=O)CSc1nc2c(c(=O)n1-c1ccc(OC)cc1)SCC2,-0.8,21,5,4,2.4,0,5,18,6,2.3
Cc1nn(CC(=O)Nc2ccc3nc4n(c(=O)c3c2)CCCC4)c(C)c1[N+](=O)[O-],-0.2,-2,3,2,-2.0,2,6,-12,4,-4.1
CCCCN(Cc1cccs1)S(=O)(=O)c1ccc(-c2ccc(=O)[nH]n2)s1,-1.0,-3,-1,-17,-2.2,3,-2,26,-9,-0.5

# Part of the list above, with bars between the fields.
SMILES | A1 inh | B2AR ag | rRNA inh HTS | rRNA inh HTS OD600 | rRNA inh HTS RFP | Beta apoptosis | Calb FLC | T cruzi repl | ALR inh | LANA-H2A inh
CC(C)(C)SCCNC(=O)CN(c1ccccc1)S(=O)(=O)c1ccccc1 | -0.7 | 2 | 3 | -1 | -0.1 | -4 | 5 | -7 | 2 | 1.6
Cc1ccc(S(=O)(=O)N(C)C)cc1NC(=O)COC(=O)C1(c2ccccc2)CC1 | 0.2 | -13 | 2 | 3 | -0.8 | 1 | 4 | 8 | / | 4.0
Cc1cc(/C=C2/NC(=O)N(c3ccccc3)C2=O)c(C)n1-c1cccnc1 | -0.4 | -6 | 7 | 11 | 3.7 | -2 | 29 | -3 | 14 | -1.6
CC(C)NC(=S)Nc1ccc2nc3n(c(=O)c2c1)CCCCC3 | -0.2 | -4 | -1 | 4 | -17 | 1 | -13 | -11 | 21 | 0.4
Cc1ccc(NC(=O)C2CC(=O)n3c(nc4ccccc43)N2)cc1 (centres undefined) | 0.0 | -4 | 18 | 3 | 0.0 | / | -15 | -21 | -5 | -0.8
CC(C)CCNC(=O)CSc1nc2ccccc2s1 | -0.4 | -20 | 3 | 6 | 1.0 | -6 | -6 | -17 | / | 3.4

# Next entries:
SMILES,A1 inh,B2AR ag,rRNA inh HTS,rRNA inh HTS OD600,rRNA inh HTS RFP,Beta apoptosis,Calb FLC,T cruzi repl,ALR inh,LANA-H2A inh
O=C(CCNS(=O)(=O)c1ccccc1C(F)(F)F)NNC(=O)C1COc2ccccc2O1 (centres undefined),1.0,1,2,0,-0.9,-4,-7,-11,-6,-0.3
CSc1ccccc1C(=O)OCC(=O)N1CCN(C(C)=O)CC1,-0.6,-6,7,10,3.9,-3,/,/,/,0.4
Cc1cccc(-n2cc(CN3CCN(C(=O)c4ncn[nH]4)CC3)c(-c3cccc(F)c3)n2)c1,0.5,-6,10,-2,1.5,-13,44,11,-3,-2.2
Cc1ccc2cc3c(nc2c1)N(c1ccccc1)CC3,0.0,0,33,23,1.9,-4,-13,12,0,1.1
Cc1cc(C(=O)Nc2cccc3ccccc23)c(C)o1,0.1,-5,-5,-9,4.7,-3,-2,-5,-9,0.5
COc1ccc(NS(=O)(=O)c2ccc(NC(=S)NC(=O)c3ccc(F)cc3)cc2)nn1,-0.1,9,/,/,/,-3,-10,-5,38,-4.9
COc1ccccc1C(=O)NNC(=O)c1cccc(C)c1,-4.2,-10,20,25,0.9,/,-3,-1,2,-4.0
C=CCNC(=S)NNC(=O)c1cccn(Cc2ccc(Cl)cc2)c1=O,-0.8,4,-3,7,1.1,/,33,-16,29,1.5
O=C(COc1ccc(Br)cc1)Nc1ccc(S(=O)(=O)Nc2ccccn2)cc1,0.1,14,-17,-14,-0.6,-2,-17,4,/,3.3
O=C(Cc1ccccc1)Nc1nonc1NC(=O)c1ccccc1,-0.5,8,/,/,/,2,81*,-11,-4,-3.5
COc1ccc(S(=O)(=O)N2CCC(Cc3ccccc3)CC2)cc1NC(C)=O,0.6,1,4,9,-3.0,-11,-6,-4,0,2.7
COc1ccccc1NC(=O)N1CCCC1C(=O)Nc1ccc2c(c1)OCCO2 (centres undefined),-0.3,-5,-2,4,0.4,-4,-12,-16,-2,-0.4
NS(=O)(=O)c1ccc(CCNC(=O)Cc2cccs2)cc1,1.2,-2,8,3,-4.9,1,4,-3,-18,-1.7
NS(=O)(=O)c1ccc(CNC(=O)c2ccccc2SCC(=O)N2CCCC2)cc1,-0.1,-2,13,9,3.6,-3,-5,-13,/,2.7
C=C(C)Cn1cnc2c(oc3nc4c(cc32)CCCC4)c1=O,-1.2,-11,-8,-13,0.8,6,-27,-12,-17,-0.7
O=[N+]([O-])c1ccc(CSc2ccccn2)cc1,-1.3,-2,2,5,-1.5,-4,-5,-12,10,1.2
CN1CC(=O)N2Cc3[nH]c4ccccc4c3C[C@H]2C1=O,0.9,-5,9,6,-0.9,-5,-10,-1,-20,1.3
Cc1ccc(S(N)(=O)=O)c(C)c1N1CCCC1=O,0.5,0,11,8,-0.3,4,0,1,-28,3.0
Cc1ccc(C2C(C(=O)c3sc(C)nc3C)=C(O)C(=O)N2CCN(C)C)o1 (centres undefined),0.3,-1,9,6,-3.4,-4,-8,-3,-7,11
CC(C)c1cc(CN2CCN(C3CCCC3)C(CCO)C2)[nH]n1 (centres undefined),-0.5,7,21,13,2.1,-9,-7,14,-2,-0.9
Cc1ccnc(N2CCC(C(=O)NNC(=O)COc3cccc4ccccc34)CC2)n1,-0.6,2,8,8,0.1,-2,-25,-25,-3,0.2
CC(=O)c1ccc2c3c(cccc13)CC2,0.8,-11,/,/,/,-5,5,-2,-1,7.4
O=C(CCNC(=O)c1ccccc1Cl)Nc1cccc(S(=O)(=O)N2CCCC2)c1,-0.6,0,13,5,1.9,0,/,/,1,7.2
COC(=O)CCN(C(=O)c1ccc(N2CCCC2)c([N+](=O)[O-])c1)c1ccccn1,-0.5,-4,-14,-8,-2.5,3,28,14,-12,-2.0
CCCn1c(SCc2ccon2)nc2ccccc2c1=O,-1.2,-7,/,/,/,-1,32,11,-12,1.5

# Further records:
SMILES,A1 inh,B2AR ag,rRNA inh HTS,rRNA inh HTS OD600,rRNA inh HTS RFP,Beta apoptosis,Calb FLC,T cruzi repl,ALR inh,LANA-H2A inh
O=C(CC1C(=O)NCCN1Cc1ccc(-c2ccccc2)cc1)NCCc1ccccn1 (centres undefined),-1.6,0,4,11,2.7,-2,1,3,-4,4.9
O=C(N/N=C/C=C/c1ccccc1)c1cc2c(ccc3ccccc32)o1,-1.3,-1,/,/,/,13,-5,-2,-6,-4.7
O=C(CCC(=O)Nc1ccccc1Cl)NNC(=O)C1CCCCC1,-1.2,10,/,/,/,-3,/,/,2,-6.6
CCN(CC)CCOC(=O)c1c(C)oc2ccc(OC)cc12,0.0,8,/,/,/,/,-7,-2,-3,-3.3
O=C(N/N=C/C=C\c1cccc([N+](=O)[O-])c1)c1cccnc1,-0.1,-4,3,0,2.6,/,0,-11,-7,6.4
COCC(C)NS(=O)(=O)c1ccc(C)cc1 (centres undefined),2.1,0,/,/,/,0,-5,-23,-9,5.4
COc1ccccc1NC(=S)N1CCC(c2nc3ccccc3o2)CC1,-0.5,6,-2,-2,0.4,-1,-3,9,-16,-1.2
Brc1ccc(CNc2nc3ccccc3n2CCN2CCCCC2)cc1,1.4,-5,-31,-29,41,2,-22,29,25,1.1
O=C(CN(CCc1ccccc1)C(=O)c1csnn1)NC1CCCC1,0.7,-2,6,10,-1.6,-3,-2,-14,-2,2.2
CNC(=S)N/N=C/c1ccccc1OCC(=O)O,-0.4,3,13,0,-1.5,-8,-13,-16,15,2.7
COc1cc2cc3c(N)c(C(=O)NCc4ccco4)sc3nc2cc1OC,-0.4,6,/,/,/,4,1,16,3,5.8
Cc1cccc(NC(=O)Cn2cnc(S(=O)(=O)N3CCCC3)c2)c1C,-0.3,1,4,2,-0.9,-10,24,-12,-7,0.9
Cc1cc(C)n(C(=O)c2cc3sccc3[nH]2)n1,-3.1,-2,-4,-2,-0.6,1,3,6,-2,-0.1

# Screening results: PubChem, several laboratories
